HPGD inh: blocks human HPGD enzyme activity; purified HPGD, NADH fluorescence kinetic, PGE2 substrate; Potency, µM, for the others: top-dose activity change, negative = inhibition, usual class: inhibitors; 150,000 tested, 4.3% active; active = well fitted inhibition curve with a large enough effect (not every such curve was filed as active); inconclusive = small, poorly fitted or top-dose-only effect, or another doubt; inactive = no such curve, though single readings can be large or run the other way;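 further: top concentration of the series not given in the record; plate controls included wells without enzyme; inactives centre near -10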
Target sequence (P15428 whole entry, looked up): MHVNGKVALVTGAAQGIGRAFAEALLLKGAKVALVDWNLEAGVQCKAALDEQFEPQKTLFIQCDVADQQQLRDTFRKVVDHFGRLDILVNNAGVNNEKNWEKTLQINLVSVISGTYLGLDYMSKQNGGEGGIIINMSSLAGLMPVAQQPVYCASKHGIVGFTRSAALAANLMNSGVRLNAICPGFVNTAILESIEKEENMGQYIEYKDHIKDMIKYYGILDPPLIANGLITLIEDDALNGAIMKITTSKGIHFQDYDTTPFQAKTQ
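NADH formation kinetics: reaction with 30 uM PGE2 and 1 mM NAD+ (final), 20 nM enzyme, Tris-HCl pH 8 with Tween 20, after 15 min compound preincubation at room temperature. Fluorescence change, last versus first of five reads.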
The depositor's hits bear a star; & = joins results of further samples. On the % scale 0 is the no-effect control and ±100 the full control effect; potency means the concentration at half of the fitted maximal effect. A portion of the library. The share of hits here may be higher or lower than overall.

Screening COc1ccc(/C(O)=C2/C(=O)C(=O)N(CCCN(C)C)C2c2cccc(Cl)c2)cc1OC (centres undefined) returned HPGD inh -1%.
For O=C(CN1CCCN(S(=O)(=O)c2ccc(Br)s2)CC1)Nc1ccc(Cl)cc1 the results were HPGD inh -12%.
`CN=C(Nc1cc(C)nn1CCC#N)c1ccccc1F` gave HPGD inh -3%.
`O=C(CN1CCN(c2ccc(O)cc2)CC1)Nc1cc([N+](=O)[O-])ccc1Cl` gave HPGD inh -8%.
Screening c1coc(-c2nnc(NC3=NCCC3)o2)c1 returned HPGD inh -14%.
Screening COc1ccccc1N(C(=O)c1cncc(Br)c1)c1nc(-c2ccc(C)cc2)cs1 returned HPGD inh -19%.
N#CC(C#N)=C(Nc1ccc(F)cc1)SCc1cccc(Br)c1 was read as HPGD inh -2%.
For CCN(C(=O)c1ccccc1)c1ccc([N+](=O)[O-])cc1 the results were HPGD inh -5%.
`Cc1nc2sccn2c(=O)c1CCN1CCC(=C(c2ccc(F)cc2)c2ccc(F)cc2)CC1` gave HPGD inh -25%&-13%&-12%.
`O=C(Cn1ncn2c(cc3ccccc32)c1=O)NCc1ccco1` gave HPGD inh inconclusive.
Screening Cc1cc(C)n(-c2nc3nonc3nc2Nc2cccc(C)c2C)n1 returned HPGD inh -6%.
Cc1ccc(C)c(NC(=O)CSc2ncnc3nc[nH]c23)c1 was read as HPGD inh inconclusive.
For Cc1cccc2cc(CN(Cc3ccco3)C(c3nnnn3CCc3ccccc3)C(C)C)c(=O)[nH]c12 (centres undefined) the results were HPGD inh inconclusive.
COc1cccc(NC2C=CS(=O)(=O)C2)c1 (centres undefined) was read as HPGD inh -21%.
Screening CCOC(=O)N1CCC(Nc2cccc(SC)c2)CC1 returned HPGD inh -12%.
CCN(CC(=O)Nc1ccc2c(c1)OCCO2)C(=O)C1CCCCC1 was read as HPGD inh -11%.
Screening O=C(c1cnn2c1NC(c1ccco1)CC2C(F)(F)F)N1CCN(c2cccc(Cl)c2)CC1 (centres undefined) returned HPGD inh -28%.
Cc1ccc2nc(NC3=NCN(CCc4ccccc4)CN3)nc(C)c2c1 was read as HPGD inh -3%.
`CCCC(=O)Nc1nc2c(OC)ccc(OC)c2s1` gave HPGD inh -16%.
For O=C(CCN1C(=O)C2C3C=CC(C3)C2C1=O)N1CC(=O)N(CCc2ccccc2)C(=O)C1 (centres undefined) the results were HPGD inh 3%.

Ordered by molecular weight (largest number first): 13 of the compounds above
For Cc1cccc2cc(CN(Cc3ccco3)C(c3nnnn3CCc3ccccc3)C(C)C)c(=O)[nH]c12 (centres undefined) the results were HPGD inh inconclusive.
For O=C(CN1CCCN(S(=O)(=O)c2ccc(Br)s2)CC1)Nc1ccc(Cl)cc1 the results were HPGD inh -12%.
Screening O=C(c1cnn2c1NC(c1ccco1)CC2C(F)(F)F)N1CCN(c2cccc(Cl)c2)CC1 (centres undefined) returned HPGD inh -28%.
`Cc1nc2sccn2c(=O)c1CCN1CCC(=C(c2ccc(F)cc2)c2ccc(F)cc2)CC1` gave HPGD inh -25%&-13%&-12%.
Screening COc1ccc(/C(O)=C2/C(=O)C(=O)N(CCCN(C)C)C2c2cccc(Cl)c2)cc1OC (centres undefined) returned HPGD inh -1%.
Cc1ccc2nc(NC3=NCN(CCc4ccccc4)CN3)nc(C)c2c1 was read as HPGD inh -3%.
Screening Cc1cc(C)n(-c2nc3nonc3nc2Nc2cccc(C)c2C)n1 returned HPGD inh -6%.
Screening CCOC(=O)N1CCC(Nc2cccc(SC)c2)CC1 returned HPGD inh -12%.
`CN=C(Nc1cc(C)nn1CCC#N)c1ccccc1F` gave HPGD inh -3%.
`CCCC(=O)Nc1nc2c(OC)ccc(OC)c2s1` gave HPGD inh -16%.
For CCN(C(=O)c1ccccc1)c1ccc([N+](=O)[O-])cc1 the results were HPGD inh -5%.
COc1cccc(NC2C=CS(=O)(=O)C2)c1 (centres undefined) was read as HPGD inh -21%.
Screening c1coc(-c2nnc(NC3=NCCC3)o2)c1 returned HPGD inh -14%.

Next section.
Cc1ccccc1-c1nc(CS(=O)(=O)CC(=O)N2CCc3ccccc32)c(C)o1 was read as HPGD inh -10%.
`COc1ccccc1NC(=O)CN1CCN(c2ccccc2F)CC1` gave HPGD inh -5%.
Cc1ccc(S(=O)(=O)NCC(=O)N(CC(=O)NC2CCCCC2)CC2CCCO2)cc1 (centres undefined) was read as HPGD inh 2%.
For CCOC(=O)CN1CCc2c(C)nc3c(-c4ccc(OC)c(OC)c4)cnn3c21 the results were HPGD inh -18%.
Screening Cc1cc2c(cc(C(=O)N3CCC(C(=O)N4CCCC4)CC3)n2Cc2c(F)cccc2Cl)o1 returned HPGD inh -1%.
Screening CNC(=O)CSc1nnc(-c2ccncc2)n1Cc1ccccc1 returned HPGD inh -5%.
`Oc1c(/C=N/c2ncn[nH]2)ccc2ccccc12` gave HPGD inh -10%.
For O=C1CCCN1c1ccc(Br)cc1 the results were HPGD inh -25%.
`N#CC1(c2nc3ccccc3[nH]2)CC1c1ccc2c(c1)OCO2` (centres undefined) gave HPGD inh -11%.
`COc1ccc(C2=NN3C(C2)c2ccccc2OC32C(=O)N(C)c3ccccc32)cc1` (centres undefined) gave HPGD inh inconclusive.
For COc1ccc(C2(CNC(=O)CCC(=O)O)CCCC2)cc1 the results were HPGD inh -11%.
Screening COc1ccc(C(=O)N(CC(=O)NC(C)(C)C)c2ccc3c(c2)OCCO3)cc1OC returned HPGD inh -7%.
Screening COc1ccc(C(=O)Nc2ccc(Cl)cc2C(=O)N2CCCC(C)C2)cc1OC (centres undefined) returned HPGD inh -8%.
`Cc1ccc(OCC(=O)n2nc(C)cc2C)c(C)c1` gave HPGD inh 6%.
Cc1cccc(C(=O)NC(=S)N2CCN(C)CC2)c1 was read as HPGD inh -6%.
Screening Cc1nn(CC(=O)O)c2ccccc12 returned HPGD inh -11%.
For CCOCC(=O)Nc1nc(C)cc(C)n1 the results were HPGD inh -3%.
`Cc1cc(Cl)ccc1NC(=S)NCCCO` gave HPGD inh -3%.
`O=C(c1ccc(Cl)c(S(=O)(=O)N2CCCCCC2)c1)N1CCN(c2ccccn2)CC1` gave HPGD inh -10%.
`COc1ccc(N2CCN(CC(=O)Nc3sccc3C#N)CC2)cc1` gave HPGD inh -11%.
Screening Cc1c(/C=N/NC(=O)CNc2ccccc2)c2ccccn2c1C(=O)c1ccncc1 returned HPGD inh -4%.
For c1cc(-c2nnc(-c3ccncc3)o2)ccn1 the results were HPGD inh -21%.
For CC(CCc1ccccc1)NC(=O)C1CCCN(c2nnc(-n3cccc3)s2)C1 (centres undefined) the results were HPGD inh -18%.
`COc1ccc(C=NCCC2(O)CC(C)N(C)CC2C)cc1` (centres undefined) gave HPGD inh -11%.
For CCOc1ccc(NC2C=CS(=O)(=O)C2)cc1 (centres undefined) the results were HPGD inh -9%.
Screening COCCCNC(=O)CN1CCN(Cc2ccccc2Cl)C1=O returned HPGD inh -13%.
For COCCN(CCOC)S(=O)(=O)c1ccc(C(=O)Nc2nnc(C3CC3)o2)cc1 the results were HPGD inh -16%.
Screening COc1cc(C(c2c(C)[nH][nH]c2=O)c2c(C)[nH][nH]c2=O)ccc1OS(=O)(=O)c1ccccc1 returned HPGD inh -8%.
Screening Cc1ccn2c(c1)nc(=S)n2C(=O)c1ccccc1 returned HPGD inh 25µM*.
Screening CCOC(=O)c1c(NC(NC(C)=O)C(Cl)(Cl)Cl)sc(C(C)=O)c1C (centres undefined) returned HPGD inh -20%.
For Cc1ccnc(NC(=S)NC(=O)/C=C/c2ccccc2)c1 the results were HPGD inh -10%.
Cc1ccc(-c2cc(C(=O)OCn3nnc4ccccc4c3=O)c3ccccc3n2)cc1 was read as HPGD inh inconclusive.
`O=C(CN1CCN(c2ccc(O)cc2)CC1)NC(c1ccccc1)c1ccccc1` gave HPGD inh inconclusive.
Screening N#Cc1cc(Sc2ccccn2)c(Sc2ccccn2)cc1C#N returned HPGD inh inconclusive.
Cn1cc(C(=O)N/N=C/C(Br)=C/c2ccccc2)ccc1=O was read as HPGD inh 28µM*.
Screening Cc1ccccc1NC1=NC(=S)N(c2ccccc2)C12CCOC(C)(C)C2 (centres undefined) returned HPGD inh -2%.
For Cc1cccc(NC(=S)N(Cc2cccs2)Cc2cc3cc(C)cc(C)c3[nH]c2=O)c1 the results were HPGD inh -17%.
Cc1cc2ncn(C(=O)N3CCC(C)CC3)c2cc1C was read as HPGD inh inconclusive.
For Cc1ccccc1CSCCNC(=O)c1ccc(N(C)S(=O)(=O)c2ccccc2)cc1 the results were HPGD inh -17%.
For COc1ccc(S(=O)(=O)Cc2ccc(C(=O)NCCc3ccc(S(N)(=O)=O)cc3)o2)cc1 the results were HPGD inh -4%.
CC(C)(C)NC(=O)NC(=O)CSc1nnc2ccccn12 was read as HPGD inh -19%.
For COc1ccc(/C=N/Nc2cc(C)nc(NS(=O)(=O)c3ccc(C)cc3)n2)cc1 the results were HPGD inh -17%.
O=C(NCC1CCCO1)c1ccc(COc2ccccc2Br)cc1 (centres undefined) was read as HPGD inh 4µM*.
`CCOC(=O)CSC1=N/C(=C\c2cccnc2)C(=O)N1c1ccc(OC)cc1` gave HPGD inh inconclusive.
Screening Cn1c(-c2ccc(F)cc2)cnc1SCC(=O)N1CCCCC1 returned HPGD inh -26%.
For COc1ccc(Br)cc1CNC(=O)C1CCN(S(=O)(=O)N2CCCCC2)CC1 the results were HPGD inh -7%.
For O=C(CSc1nnc(-c2ccncc2)n1Cc1ccco1)c1ccc(Cl)cc1 the results were HPGD inh -20%.
CSC1=NCCN1C(=O)c1c(-c2ccccc2Cl)noc1C was read as HPGD inh -1%.
Screening CCN1CCN(c2nc(N)c([N+](=O)[O-])c(Nc3ccc(C)c(C)c3)n2)CC1 returned HPGD inh -3%.
`CN1CCN(c2nc3ccccc3nc2C(C#N)C(=O)OC2CCCCC2)CC1` (centres undefined) gave HPGD inh -10%.
Screening COCCNC(=O)Cn1cc2c(n1)CCC(C)C2 (centres undefined) returned HPGD inh -10%.
`Cc1ccc(S(=O)(=O)/N=C2/C=C(C3C(=O)CC(C)(C)CC3=O)C(=O)c3ccccc32)cc1` gave HPGD inh inconclusive.
`N#Cc1ccccc1NC(=O)COC(=O)CSc1nc2ccccc2o1` gave HPGD inh -14%.
`CC(C)(C)NC(=O)Cn1c(=O)oc2cc(S(=O)(=O)N3CCc4ccccc43)ccc21` gave HPGD inh -6%.
Screening COc1ccc(NC(=O)c2ccco2)c([N+](=O)[O-])c1 returned HPGD inh -11%.
For Cc1cc(C)n2nc(-c3cnn(C)c3C(F)(F)F)c(Cl)c2n1 the results were HPGD inh -3%.
For CCN(CC)S(=O)(=O)c1cc(NC(=O)C(C)N(C)CC(=O)Nc2c(C)cccc2C)ccc1C (centres undefined) the results were HPGD inh -9%.
Cc1c(NC(=O)NC(C)N2C(=O)C3C4C=CC(C4)C3C2=O)c(=O)n(-c2ccccc2)n1C (centres undefined) was read as HPGD inh -5%.
O=C(Nc1ncc(Cc2ccccc2Cl)s1)C1=NCCN1 was read as HPGD inh -2%.
Screening CCOc1ccc(N=Nc2c(=O)[nH]n3c(C)cc(C)nc23)cc1 returned HPGD inh -19%.
N[C@H](C(=O)O)c1nn[nH]n1 was read as HPGD inh -1%.
CCCCNC(=O)CN(c1cc(C(F)(F)F)ccc1Cl)S(C)(=O)=O was read as HPGD inh -12%.
Screening CCCCn1c(O)c(C(CC)=Nc2ccc3c(c2)CCC3)c(=O)[nH]c1=O returned HPGD inh -21%.
`CCOC(=O)c1c(-c2ccc(C)o2)csc1NC(=O)CSc1nncs1` gave HPGD inh 20µM*.
For C=CC(N)CCC(=O)O (centres undefined) the results were HPGD inh -8%&-6%.
`Nc1cc(C(=O)O)c(Oc2ccc(Cl)cc2Cl)cc1C(=O)O` gave HPGD inh inconclusive.
`COc1ccc(CN2CCn3ncc(C(=O)Nc4ccc(Cl)cc4Cl)c3C2=O)cc1` gave HPGD inh inconclusive.
`CCC(=O)Nc1cccc(-n2nnnc2SCC(=O)NCc2ccco2)c1` gave HPGD inh -5%.
Screening Cc1cc(C(=O)NC2=NCCS2)cs1 returned HPGD inh -7%.
For CCn1c(=O)c(C(=O)CN2CCc3ccccc32)c(N)n(Cc2ccccc2)c1=O the results were HPGD inh -13%.
COc1ccc(N=C2SC(CC(=O)Nc3ccccc3)C(=O)N2CC2CCCO2)cc1 (centres undefined) was read as HPGD inh -17%.
For CCN(CC)S(=O)(=O)c1cccc(-c2n[nH]c(=S)n2/N=C/c2ccc(Br)cc2)c1 the results were HPGD inh 14µM*.
For Cc1nc(NCc2ccccc2)c2nc(-c3ccccc3)n(C3CCN(Cc4ccccc4)C3)c2n1 (centres undefined) the results were HPGD inh -15%.
`CCc1nnc(NC(=O)c2ccc(-c3ccc(Cl)cc3)o2)s1` gave HPGD inh inconclusive.
For Cc1cc(C)c(-n2nnnc2SC(C)C)c(C)c1 the results were HPGD inh -9%.
Screening Cc1nc2sc(C(c3ccco3)N3CCOCC3)c(O)n2n1 (centres undefined) returned HPGD inh -17%.
Screening COC(=O)C(O)(CC(=O)Nc1cc(OC)c(OC)c(OC)c1)C(F)(F)F (centres undefined) returned HPGD inh -3%.
O=C(O)C1CCCCC1C(=O)NCCc1ccncc1 (centres undefined) was read as HPGD inh 2%.
For Cc1cc(C)c(NC(=O)C2=CCN(S(=O)(=O)c3ccc(F)cc3)CC2)c(C)c1 the results were HPGD inh -6%.
Screening Cc1nc(SC2CC(=O)N(c3cc(Cl)cc(Cl)c3)C2=O)nc2c1CCCC2 (centres undefined) returned HPGD inh -11%.
`CCCCc1nccn1CCn1ccnc1CCCC` gave HPGD inh -15%.
Screening COc1ccc(CC(=O)Nc2nc(C)cs2)cc1OC returned HPGD inh -16%.
`CCOC(=O)c1c(NC(=O)Cn2nnc(-c3ccc(Cl)cc3)n2)sc(C)c1C` gave HPGD inh -3%.
CC(C)N(C(=O)COC(=O)CNC(=O)c1ccc(Br)cc1)c1ccccc1 was read as HPGD inh -14%.
`CSCCC(NC(=O)c1ccco1)C(=O)O` (centres undefined) gave HPGD inh -10%.

Compound activity (PubChem BioAssay)
